Mtb MbtI inh: inhibitors of Mycobacterium tuberculosis siderophore enzyme MbtI; actives 0.89% (n = 100,000); inhibition, %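 (about 17 µg/mL by stock and volumes)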; P9WFX0; AID 493033; purified MbtI enzyme, fluorescence intensity read-out;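 active = above 50% in both replicates, above 80% if mildly self-fluorescent; inactive = the rest, strongly fluorescent compounds included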;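 note: 0% = mean of negative and 100% = mean of positive controls; one replicate is shown; some compounds called inactive have numbers as strong as hits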
Target sequence (P9WFX0 whole entry, looked up): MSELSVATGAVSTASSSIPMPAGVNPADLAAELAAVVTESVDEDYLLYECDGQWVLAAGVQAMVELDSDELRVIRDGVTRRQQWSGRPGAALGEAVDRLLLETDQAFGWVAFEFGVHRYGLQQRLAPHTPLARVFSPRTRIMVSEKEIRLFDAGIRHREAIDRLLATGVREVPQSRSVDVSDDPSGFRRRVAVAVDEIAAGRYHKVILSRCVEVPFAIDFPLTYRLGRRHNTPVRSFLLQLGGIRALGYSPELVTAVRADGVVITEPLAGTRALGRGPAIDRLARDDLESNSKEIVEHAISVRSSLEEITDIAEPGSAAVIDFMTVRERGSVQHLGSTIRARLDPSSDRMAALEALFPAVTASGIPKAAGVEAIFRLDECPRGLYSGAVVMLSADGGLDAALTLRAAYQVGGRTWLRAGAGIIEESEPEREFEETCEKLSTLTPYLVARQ
Polio RdRp inh: poliovirus RNA polymerase inhibition | % elongation, % (compound at 16.7 µg/mL) | actives 0.66% (n = 150,000) | P03300 | poliovirus polymerase elongation, fluorescence polarization; hits give low values; in the data active = % elongation below about 90%; note: some results filed as inactive read as strong as hits
MenB inh: Mtb MenB enzyme inhibition; MenB enzyme assay, absorbance read-out; some hits fall short of the stated cut; AID 540299; actives 0.43% (n = 100,000); inhibition, %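 (about 12 µg/mL by stock and volumes)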;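 active = mean of two replicates above 30%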;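 note: 0% = no compound and 100% = wells with inactive enzyme; the first replicate is given; strong numbers were not always called active; inactives centre near -10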
Target sequence (P9WNP5 whole entry, looked up): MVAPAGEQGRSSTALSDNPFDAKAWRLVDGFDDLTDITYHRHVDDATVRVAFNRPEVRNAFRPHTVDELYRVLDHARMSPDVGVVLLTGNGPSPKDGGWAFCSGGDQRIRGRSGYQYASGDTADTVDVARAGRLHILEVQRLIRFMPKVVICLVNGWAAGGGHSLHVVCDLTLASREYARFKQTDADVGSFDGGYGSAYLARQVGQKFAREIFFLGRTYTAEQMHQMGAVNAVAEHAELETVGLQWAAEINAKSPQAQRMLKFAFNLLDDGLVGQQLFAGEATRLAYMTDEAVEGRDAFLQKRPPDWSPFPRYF
Polio RdRp inh intensity: recorded beside Polio RdRp inh, whose call it bears; % elongation; measured here: total intensity read-out; formula for this scale not given here;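 total fluorescence in place of polarization; lower means less elongation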
* = called active by the depositor; nt = not tested or not shown.

Results follow in this order: Mtb MbtI inh | Polio RdRp inh | Polio RdRp inh intensity | MenB inh
1	CC1CN(C(=O)CCC(=O)N(C)Cc2ccccc2)c2ccccc2O1 (configuration not stated)
    -13 | 102 | 104 | -3
2	O=C1C2Sc3[nH]c(=O)sc3C(/C=C/c3ccccc3)C2C(=O)N1c1ccc(Br)cc1 (configuration not stated)
    4 | 114 | 153 | -11
3	CCOC(=O)Nc1ccc2c(CN3CCc4ccccc4C3)cc(=O)oc2c1
    55 | 102 | 104 | 4
4	CNC(=O)COc1ccccc1Br
    -1 | 106 | 111 | -27
5	O=C(COc1ccccc1O)Nc1ccccc1Br
    -8 | 100 | 101 | nt
6	CCN(CC(=O)O)S(=O)(=O)c1ccccc1
    -9 | 104 | 104 | -9
7	O=C(NC(c1ccccc1)c1ccccc1)C1CCN(c2ncccn2)CC1
    20 | 101 | 101 | -1
8	COc1ccc(-c2noc(N3CCC(C(=O)NC(C)c4ccccc4)CC3)n2)cc1 (configuration not stated)
    -2 | 103 | 108 | 0
9	CN(Cc1ccccc1)S(=O)(=O)c1ccc2c(c1)CCCC(=O)N2
    13 | 101 | 103 | 5
10	CCCC(=O)NC(=S)Nc1ccccc1N1CCOCC1
    -4 | 106 | 99 | -29
11	O=C(CCCn1c2ccccc2c2cn[nH]c(=O)c21)NC1CCCCCC1
    2 | 107 | 103 | -32
12	O=c1[nH]c(CN2CCc3ccccc32)nc2ccccc12
    -5 | 105 | 110 | 5
13	CCOc1ccc2cc(C3CC(c4ccco4)=NN3S(C)(=O)=O)c(=O)[nH]c2c1 (configuration not stated)
    -7 | 106 | 117 | 5
14	COC(=O)c1cn(NC(=O)c2ccncc2)c(=O)c2ccccc12
    -1 | 101 | 103 | 5
15	Cc1c(C(=O)N(C)Cc2ccccc2)sc2ncnc(N3CCN(c4ccccc4)CC3)c12
    -7 | 103 | 102 | -6
16	CC1(C)C(C#N)=C(S)NC(=O)C1C#N (configuration not stated)
    -3 | 106 | 111 | -33
17	Oc1ccccc1C1CC(c2cccc(Br)c2)=NC(c2ccc(Br)cc2)N1 (configuration not stated)
    0 | 103 | 104 | 7
18	CC(C)Nc1ccccn1
    24 | 104 | 104 | nt
19	Cc1cc(C(=O)CC#N)c(C)n1CC(F)(F)F
    -3 | 107 | 107 | -10
20	COc1ccccc1NC(=O)C(C)Nc1ccc(C)cc1C (configuration not stated)
    1 | 100 | 106 | -23
21	CCOC(=O)CSc1sc(C(=O)OCC)c(N)c1C(=O)N1CCOCC1
    8 | 102 | 102 | -18
22	COc1ccc(/C=C/C(=O)O)cc1S(=O)(=O)N(C)C
    -4 | 99 | 102 | -3
23	COc1ccc(CNc2cc(C)nc3ccc(OC)cc23)cc1
    -42 | 95 | 108 | -24
24	COc1ccccc1CNC(=O)C1CCN(C(=O)c2ccco2)CC1
    -6 | 102 | 101 | -1
25	CCOc1ccc(/C=N/NC(=O)Cc2cc(=O)[nH][nH]2)cc1
    20 | 100 | 103 | -110
26	Fc1cccc(Cl)c1CSC1=NCCN1
    2 | 112 | 107 | 1
27	O=C(NC(=S)N1CCCC1)C1CC1
    10 | 102 | 92 | -7
28	CC(N=CC1=C(O)CNC1=O)c1ccccc1 (configuration not stated)
    21 | 104 | 103 | -10
29	CCOC(=O)c1cc2c(nc1C)-c1cc(Cl)cc(Cl)c1OC2O (configuration not stated)
    -9 | 104 | 109 | -11
30	CC1(C(=O)O)Cc2ccccc2C(=O)O1 (configuration not stated)
    -6 | 99 | 103 | -10
31	CN(CC(=O)Nc1ccc(Cl)cc1)C(=O)Cn1nnc2ccccc2c1=O
    9 | 107 | 105 | 1
32	COC(=O)c1cc(S(=O)(=O)NC2CCCCNC2=O)oc1C (configuration not stated)
    -10 | 102 | 101 | 7
33	Cc1c(C(=O)N2CCOCC2)oc2c1-c1nn(CC(=O)NC3CCCCC3C)cc1CC2 (configuration not stated)
    50 | 99 | 103 | -3
34	Cc1cc(OCC(=O)N(Cc2ccc(C(C)C)cc2)C2CCS(=O)(=O)C2)cc(C)c1Cl (configuration not stated)
    -11 | 99 | 98 | -27
35	CCC(Sc1nnc(-c2cc3occc3n2C)n1-c1ccccc1C)C(=O)NC1CCCC1 (configuration not stated)
    -13 | 102 | 102 | -38
36	COc1ccccc1C1OC(CSc2nc3ccccc3o2)=NN1C(C)=O (configuration not stated)
    2 | 99 | 101 | 2
37	COc1ccc(C)cc1NC(=O)CCN1CCN(c2ccccc2)CC1
    11 | 102 | 103 | -8
38	CCOc1ccc(NC(=O)N(CC(C)C)CC(C)C)cc1
    4 | 100 | 102 | -17
39	COCCNC(=O)C1CCCN(c2cnnc3c(Cl)cccc23)C1 (configuration not stated)
    -1 | 102 | 102 | -60
40	O=C(O)CSC(=S)N1CC2CC(C1)c1cccc(=O)n1C2 (configuration not stated)
    28 | 99 | 101 | -12
41	Cc1nnc(NC(=O)CSc2nnc(CNC(=O)c3ccco3)n2-c2ccc(F)cc2)s1
    7 | 100 | 103 | -12
42	CC1CCCCN1C(=O)c1noc2c1CC(C(C)(C)C)CC2 (configuration not stated)
    -11 | 102 | 104 | -32
43	CCc1cc(C(=O)OCC(=O)Nc2ccccc2F)c2ccccc2n1
    -6 | 99 | 100 | nt
44	N#Cc1ccc(OC(=O)N2CCOCC2)cc1
    -12 | 103 | 102 | -25
45	COc1ccc(/C=C/C(=O)Sc2cccc3cccnc23)cc1
    0 | 105 | 106 | nt
46	CCOC(=O)c1cc(-c2ccccc2)n(CC(=O)N2CCc3ccccc32)c1C
    2 | 99 | 101 | -19
47	Cc1ccccc1CN(C)C(C)C(=O)NCc1ccccc1 (configuration not stated)
    -8 | 102 | 95 | -31
48	Cc1nn(C)c(C)c1NC(=O)COC(=O)c1n[nH]c(=O)c2ccccc12
    -3 | 103 | 99 | 3
49	CCCCNc1ncc2c(n1)CC(c1ccccc1)CC2=O (configuration not stated)
    -9 | 102 | 104 | -14
50	CCN(C(=O)CSc1nnc(C)c(=O)[nH]1)C1CCCCC1
    2 | 99 | 104 | -1
51	Cc1c(C(C)C)c(=O)n(-c2ccc(S(=O)(=O)NC(C)C)cc2)n1C
    -4 | 101 | 100 | -14
52	Cc1ccc(NC(=O)CC2SC(=NC(c3ccc(O)cc3)c3c(O)[nH]c(=O)[nH]c3=O)NC2=O)cc1 (configuration not stated)
    21 | 97 | 99 | -18
53	O=C(COC(=O)C1CCN(S(=O)(=O)c2ccccc2)CC1)Nc1ccccc1C(=O)NC1CC1
    -42 | 107 | 103 | -5
54	Cc1ccc(-c2nc(SCC(=O)NCc3ccco3)c(-c3ccc(F)cc3)[nH]2)cc1
    -9 | 100 | 103 | -4
55	CN(Cc1ccccc1)C(=S)NC(=O)c1ccccc1
    5 | 103 | 103 | -25
56	Cc1ccc(C)n1Cc1ccc(C(=O)O)cc1
    12 | 101 | 104 | 1
57	CN(Cc1ccccc1)C(=O)Cn1ncn2cccc2c1=O
    -5 | 102 | 98 | -4
58	c1ccc(N=C(c2cccs2)N2CCOCC2)cc1
    -2 | 101 | 102 | -15
59	CC(=O)N1CCSc2cc(S(=O)(=O)NCc3ccccc3)ccc21
    -5 | 103 | 105 | -3
60	COc1ccccc1-c1cc(N)n(CCC#N)n1
    -2 | 105 | 105 | -14

Entries of single compounds from above. Screens in order: Mtb MbtI inh, Polio RdRp inh, Polio RdRp inh intensity, MenB inh
Results for CC1CCCCN1C(=O)c1noc2c1CC(C(C)(C)C)CC2 (configuration not stated) = -11, 102, 104, -32
Results for CCOc1ccc(NC(=O)N(CC(C)C)CC(C)C)cc1 = 4, 100, 102, -17
Results for COCCNC(=O)C1CCCN(c2cnnc3c(Cl)cccc23)C1 (configuration not stated) = -1, 102, 102, -60
Results for O=C(O)CSC(=S)N1CC2CC(C1)c1cccc(=O)n1C2 (configuration not stated) = 28, 99, 101, -12

Later entries.
Results follow in this order: Mtb MbtI inh | Polio RdRp inh | Polio RdRp inh intensity | MenB inh
61	CCCn1cnc2c(cnn2-c2ccc(Cl)cc2)c1=O
    15 | 99 | 99 | 2
62	Cn1c(SCc2cccnc2)ncc(C(=O)Nc2ccc(F)cc2)c1=O
    2 | 102 | 103 | 3
63	CC(C)C1C(C#N)=C(N)OC2=C1C(=O)CCC2 (configuration not stated)
    -7 | 104 | 101 | -24
64	NS(=O)(=O)c1ccc(N2CCOCC2)c(C(=O)O)c1
    0 | 102 | 102 | -24
65	C=CCn1cc(/C=C2/SC(=O)N(CC(=O)OC)C2=O)c2ccccc21
    0 | 105 | 95 | -42
66	CC(C)/C=C1\CC/C(=C\c2ccncc2)C1=O
    20 | 104 | 104 | -42
67	CC(C)=C(NC(=O)c1ccccc1)C(=O)NN=C1CCN(Cc2ccccc2)CC1
    3 | 102 | 101 | -6
68	Cn1cccc1C(=O)NC(=O)CSc1nc2ncc(Cl)cc2[nH]1
    -4 | 103 | 110 | -28
69	CCN(CC)Cn1c(=S)oc2ccccc21
    11 | 102 | 97 | -25
70	O=C(NCc1ccc2c(c1)OCO2)C12CC3CC(CC(C3)C1)C2
    nt | 103 | 105 | 0
71	COc1cc2nc(SCC(N)=O)n3nc(CCn4c(C)nc5ccccc54)nc3c2cc1OC
    2 | 102 | 97 | -11
72	CSc1ccc(OCOc2ccc(SC)cc2)cc1
    -8 | 109 | 114 | -20
73	Oc1cccc(N=Cc2ccc(N3CCOCC3)cc2)c1
    -1 | 101 | 106 | nt
74	CC(=O)N1CCN(C(=O)c2cncc(Br)c2)CC1
    -6 | 101 | 96 | nt
75	Cc1ccc2c(c1)C1CN(C)CCC1N2Sc1ccc(Cl)cc1 (configuration not stated)
    15 | 105 | 103 | nt
76	CN1CCCN(C(=O)C2CCCO2)CC1 (configuration not stated)
    -8 | 100 | 104 | 6
77	CCCCN(C)C(=O)c1noc2c1CCCCC2
    -10 | 101 | 101 | -25
78	Cc1cccc(-n2c(C)c(C)c3c(N)ncnc32)c1
    8 | 102 | 98 | 6
79	C(=N\n1cnnc1)/c1ccc(N(c2ccccc2)c2ccccc2)cc1
    -179 | 102 | 97 | nt
80	CC(C)(CSc1nncn1/N=C/c1ccco1)NS(=O)(=O)c1ccc(Cl)cc1
    3 | 103 | 96 | -15
81	O=C(NCc1ccco1)NC(=O)c1ccc(-c2csnn2)cc1
    2 | 101 | 108 | -11
82	CCOC(=O)N1CCN(CC(=O)Nc2cc(C)nn2-c2nc3ccccc3s2)CC1
    2 | 102 | 102 | -5
83	Cc1ccc(Oc2ncccc2NC(=O)CC(CC(=O)O)c2ccccc2)c2c1CCC2 (configuration not stated)
    -5 | 103 | 108 | 5
84	CCn1c(C)nc2cc(C(=O)n3cc(C(=O)c4ccccc4O)cn3)ccc21
    -9 | 104 | 110 | -35
85	Cc1ccc(Cn2c(=O)n(C3CCCC3)c(=O)c3ccccc32)c(C)c1
    -3 | 100 | 102 | 11
86	O=C1/C(=C/c2ccc(N3CCOCC3)cc2)CC/C1=C\c1ccc(N2CCOCC2)cc1
    9 | 109 | 141 | -12
87	CCOC(Cn1c2ccccc2c2ccccc21)OCC
    -6 | 108 | 109 | -14
88	CCCn1c(O)c(N=O)c2ccccc21
    8 | 103 | 105 | nt
89	Cc1ccc(-c2csc(=NC(C)(C)C)n2-c2c(C)n(C)n(-c3ccccc3)c2=O)cc1
    10 | 101 | 101 | -39
90	Cc1sc2nc(C3(C#N)Cc4ccccc4N4CCCC43)[nH]c(=O)c2c1C (configuration not stated)
    1 | 131 | 147 | -13

Next section, starting with the last 5 of the part before.
Results follow in this order: Mtb MbtI inh | Polio RdRp inh | Polio RdRp inh intensity | MenB inh
86	O=C1/C(=C/c2ccc(N3CCOCC3)cc2)CC/C1=C\c1ccc(N2CCOCC2)cc1
    9 | 109 | 141 | -12
87	CCOC(Cn1c2ccccc2c2ccccc21)OCC
    -6 | 108 | 109 | -14
88	CCCn1c(O)c(N=O)c2ccccc21
    8 | 103 | 105 | nt
89	Cc1ccc(-c2csc(=NC(C)(C)C)n2-c2c(C)n(C)n(-c3ccccc3)c2=O)cc1
    10 | 101 | 101 | -39
90	Cc1sc2nc(C3(C#N)Cc4ccccc4N4CCCC43)[nH]c(=O)c2c1C (configuration not stated)
    1 | 131 | 147 | -13
91	CCN(CC)c1ccc(NC(=O)CSc2nc(C)cc(=O)[nH]2)cc1
    14 | 102 | 101 | -15
92	O=C(/C=C/c1ccccc1)C1=C(O)C(=O)N(CCO)C1c1ccc(F)cc1 (configuration not stated)
    9 | 99 | 99 | -243
93	CCOC(=O)CSc1nc2ccccc2c(=O)n1CCN1CCOCC1
    -4 | 102 | 95 | -44
94	CS(=O)(=O)c1sc(C#N)c2c1C(=O)CCC2
    54 | 104 | 100 | 6
95	CC(=O)N1CC(C(=O)O)Oc2ccc(Cl)cc21 (configuration not stated)
    0 | 100 | 102 | 4
96	COc1ccc(C(=O)CN2CCC(N3CCCCC3)CC2)cc1
    -1 | 101 | 101 | -30
97	CNC(=O)CSc1nnc(-c2ccc(C(C)(C)C)cc2)n1-c1ccccc1
    -9 | 101 | 101 | nt
98	CCOC(=O)c1c(NC(C)=O)[nH]c2ccc(OC)cc12
    116 | 99 | 103 | -3
99	CN1/C(=C\P(=O)(c2ccccc2)N2CCOCC2)C(C)(C)c2ccccc21 (configuration not stated)
    -11 | 108 | 117 | 7
100	Cc1ccc(-n2c(SC3CCCC3=O)nnc2-c2ccncc2)cc1C (configuration not stated)
    -15 | 101 | 106 | -18

Assay outcomes from PubChem.
